From PubChem
StopGo FLuc = lowers the firefly signal of an FMDV 2A StopGo reporter | Potency, µM (series often up to 57.5 µM), for the others: at the top dose signal change, negative = less light | HEK cells with a luciferase reporter of 2A StopGo recoding | 120,000 tested, 0.23% active | AID 1745856; active = well fitted falling curve with a large enough effect; inconclusive = small, poorly fitted or top-dose-only effect; inactive = no such curve, though single readings can be large or run the other way; also: nearly all actives have a fitted effect of over 60% in size; overnight with compound
StopGo RLuc = lowers the Renilla signal of an FMDV 2A StopGo reporter. 120,000 tested, 0.32% active. Potency, µM (top dose mostly 57.5 µM), for the others: top-dose signal change, negative = less light. HEK cells with a luciferase reporter of 2A StopGo recoding; active means well fitted falling curve with a large enough effect; inconclusive means small, poorly fitted or top-dose-only effect; inactive means no such curve, though single readings can be large or run the other way; also: nearly all actives have a fitted effect of over 55% in size; overnight with compound
Starred values were filed as active, the others as inactive; ? = inconclusive; [ ] = another dose, or the depositor's remark. % is scaled to controls: 0 for no effect and ±100 for the full control effect; potency is read from the fitted curve at half-maximal effect. Not all compounds are listed. The share of hits here may be higher or lower than overall.

SMILES	StopGo FLuc	StopGo RLuc
CCOCCCNC(=O)C(c1ccc(OC)cc1)N(Cc1cccs1)C(=O)c1ccccc1O (stereo unspecified)	-1%	179%[activator]
Cc1ccc(-n2ncc3c(N(C)Cc4ccccc4)ncnc32)cc1	169%[activator]	2%
Cc1ccccc1Cn1nc(C)c(NS(=O)(=O)c2c(C)nn(C(F)F)c2C)c1C	-15%	2%
COc1ccc(S(=O)(=O)N(CC(=O)Nc2ccccc2Cl)Cc2ccccc2)cc1	-15%	0%
CS(=O)(=O)c1ncc(N(Cc2ccccc2)Cc2ccco2)c(C(=O)Nc2cccc(C(F)(F)F)c2)n1	-8%	-12%
C#CCNC(=O)CN1CCN(C(=O)c2ccc(F)cc2)CC1	5%	2%
CC(Oc1ccc(F)c(F)c1)C(=O)NCCC(=O)N1CCOCC1 (stereo unspecified)	2%	0%
O=C(c1cccc2ccccc12)N(Cc1ccc2[nH]ccc2c1)C1CC1	-7%	59%[activator]
CCOc1ccc(CNC(=O)CCCn2c(=O)c3cccn3c3cccnc32)cc1	-16%	-13%
COc1ccc(Cc2nc3c4c(C)c(C)n(CC(C)C)c4ncn3n2)cc1OC	?	?
NCCOc1cccc(C(F)(F)F)c1	10%	-6%
CCOc1ccc(-c2noc(CSc3nnc(Cc4ccccc4)n3-c3ccc(F)cc3)n2)cc1	-14%	11%
CCOc1ccc(CNC(=O)CC(C)n2ccc(C)n2)cc1 (stereo unspecified)	-4%	-4%
Cc1ccc(S(=O)(=O)N2CCN(C(=O)CCc3ncc(-c4ccccc4Cl)o3)CC2)cc1	-28%	-31%
Cc1ccc(-n2ncc(C(=O)N3CCCC3)c2-n2cccc2)cc1	0%	54%[activator]
CCN1CCN(C(=O)c2cc3ccccc3oc2=O)CC1	-10%	-7%
Cc1cc2nc(/N=C(\N)NC(=O)C(C)C)nc(C)c2cc1C	3%	-8%
Cc1ccccc1C(=O)OC1CCCN(C)C1 (stereo unspecified)	-2%	-10%
Cc1ccc(NC(=O)C(=O)NCC(c2cccnc2)N2CCN(c3ccccc3F)CC2)cc1F (stereo unspecified)	29%	39%[activator]
CC(Oc1cc2oc(=O)cc(-c3ccccc3)c2cc1Cl)C(=O)NCCCO (stereo unspecified)	-8%	-7%

In another format: entries from further up.
compound,StopGo FLuc,StopGo RLuc
CCOc1ccc(CNC(=O)CC(C)n2ccc(C)n2)cc1 (stereo unspecified),-4%,-4%
CC(Oc1cc2oc(=O)cc(-c3ccccc3)c2cc1Cl)C(=O)NCCCO (stereo unspecified),-8%,-7%
Cc1cc2nc(/N=C(\N)NC(=O)C(C)C)nc(C)c2cc1C,3%,-8%
Cc1ccccc1C(=O)OC1CCCN(C)C1 (stereo unspecified),-2%,-10%
Cc1ccc(NC(=O)C(=O)NCC(c2cccnc2)N2CCN(c3ccccc3F)CC2)cc1F (stereo unspecified),29%,39%[activator]

Next structures:
SMILES	StopGo FLuc	StopGo RLuc
N#Cc1ccc(-c2ccc(OC(=O)CSC(c3ccccc3)c3ccccc3)cc2)cc1	0%	2%
CCOc1ccc(NC(=O)CCCn2c(C)c3cnn(-c4ccccc4)c(=O)c3c2C)cc1	-7%	-7%
COc1cccc2cc(CC(=O)c3ccccc3)c(=O)oc12	83%[activator]	8%
COc1ccc(NC(=O)CCS(=O)(=O)c2nc(-c3ccc4c(c3)OCO4)cc(C(F)(F)F)n2)c(OC)c1	-18%	-7%
COc1ccc(C(=O)/C(C#N)=C\c2ccccc2I)cc1	1%	1%
COc1cc(NC(=O)CN2CCCN(Cc3cccc(F)c3)S2(=O)=O)cc(OC)c1	-10%	8%
N#CC(C(=O)Nc1ccccc1Cl)C(=O)c1cccc(Cl)c1 (stereo unspecified)	87%[activator]	34%[activator]
CCCCNC(=O)Cc1c(C)[nH]c2ccc(CC)cc12	?	?
Cn1c(=O)[nH]c(=O)c2c1nc(N1CCN(C/C=C/c3ccccc3)CC1)n2Cc1cccc(Cl)c1	-17%	-13%
O=C(Nc1ccc(Cl)cc1F)c1cc(S(=O)(=O)NCc2ccc3c(c2)OCO3)ccc1F	-12%	10%
N#Cc1cccc(NC(=O)C2CCCN2c2ncnc3ccccc23)c1 (stereo unspecified)	-1%	-11%
Cc1[nH]c2c(C(=O)N(C)C3CCS(=O)(=O)C3)cccc2c1C (stereo unspecified)	2%	18%
CCOC(=O)c1[nH]c2ccccc2c1NC(=O)c1cc(Cl)ccc1Cl	-19%	-12%
COc1ccc(Br)cc1S(=O)(=O)NCC(C)CN1CCCC1 (stereo unspecified)	-9%	22%
COc1ccc(-c2noc(CNC(=O)c3cc(OC)c(OC)c(OC)c3)n2)cc1	30%[activator]	-8%
COc1cc(OC)c(NC(=O)NCc2cccn2Cc2ccccc2)cc1Cl	-9%	92%[activator]
CCOC(=O)c1c(NC(=O)c2ccc(S(=O)(=O)N(CC(C)C)CC(C)C)cc2)sc2c1CCN(CC)C2	2%	-3%
CCCc1cnc2c(c1SCC(=O)N(C)c1ccccc1)c(=O)n(C)c(=O)n2C	21%	-11%
CC(C)(Cc1c[nH]c2ccccc12)NCC(O)COc1ccccc1C#N (stereo unspecified)	-6%[11.5 µM]	3%
N#Cc1c(N)n[nH]c1CCCNc1ncnc2c1oc1ccccc12	154%[activator]	47%[activator]
Cc1ccc(CNC(=O)c2cc3c(=O)oc4ccc(C)cc4c3s2)cc1	-27%	-11%
O=C(Cc1n[nH]c(=O)c2ccccc12)NCC(=O)N1CCN(Cc2ccccc2)CC1	6%	4%
CCOC(=O)c1ccc(N2C(=O)c3n[nH]c(C)c3C2c2ccc(Cl)cc2Cl)cc1 (stereo unspecified)	-11%	4%
COc1ccc(C(=O)Nc2ccc(-c3nc4ncccc4o3)cc2)cc1	5%	-9%
COC(=O)c1c(C)oc2ccc(N(C(=O)c3ccncc3)S(=O)(=O)c3ccc(OC)cc3)cc12	?	-12%
CCOc1ccc(NC(c2ccc(Cl)cc2)c2nnc(-c3cccc(F)c3)o2)cc1 (stereo unspecified)	-17%	-10%
COc1ccccc1N1CCN(C(=O)c2oc3ccccc3c2N)CC1	-7%	-1%
Cc1cc(C)cc(NC(=O)c2ccc3ccccc3n2)c1	140%[activator]	-3%
O=C(NCCc1ccccc1)c1ccc(CSc2nc3ccncc3n2Cc2ccc(F)cc2)cc1	26%	-18%
CCOc1ccccc1NS(=O)(=O)c1cnc(N)nc1	-14%	3%
CC(C)C(=O)NCCSCc1ccsc1	5%	10%
O=C(CCC(=O)c1ccccc1)Nc1ccccc1-c1ccccc1	-12%	18%
COc1ccccc1OCC(=O)N(Cc1ccc(Cl)cc1)CC1CCCO1 (stereo unspecified)	-10%	37%[activator]
COc1ccc2[nH]cc(C(C(=O)O)N3CCN(Cc4ccccc4)CC3)c2c1 (stereo unspecified)	-1%	-11%
CSC1=N/C(=C\c2ccc(SC)cc2)C(=O)S1	-4%	3%
CCn1c(=O)c(=O)n(CC)c2cc(N3CCCCC3)c(NC(=O)c3ccc(OC)c(OC)c3)cc21	-13%	-11%
COc1ccc(Cl)cc1N(C)C(=O)Cn1nc(Cc2ccncc2)c2ccccc2c1=O	2%	36%[activator]
COc1ccc(NC(=O)CCCS(=O)(=O)c2nc(-c3ccc(OC)c(OC)c3)cc(C(F)(F)F)n2)cc1OC	28µM*	-7%
Cc1ccc(N(CC(=O)Nc2cccc(Cl)c2C)S(=O)(=O)c2c(C)noc2C)cc1	-3%	2%
CCN(C(=O)Cn1ncc2c(=O)oc3ccc(C)cc3c21)c1cc(OC)ccc1OC	-10%	-11%

Part of the list above, with values under each structure.
Values in the order: StopGo FLuc | StopGo RLuc
- CCOCCCNC(=O)C(c1ccc(OC)cc1)N(Cc1cccs1)C(=O)c1ccccc1O (stereo unspecified)
  -1% | 179%[activator]
- N#CC(C(=O)Nc1ccccc1Cl)C(=O)c1cccc(Cl)c1 (stereo unspecified)
  87%[activator] | 34%[activator]
- COc1ccc(C(=O)Nc2ccc(-c3nc4ncccc4o3)cc2)cc1
  5% | -9%
- COc1ccc(C(=O)/C(C#N)=C\c2ccccc2I)cc1
  1% | 1%
- CCOC(=O)c1c(NC(=O)c2ccc(S(=O)(=O)N(CC(C)C)CC(C)C)cc2)sc2c1CCN(CC)C2
  2% | -3%

(more compounds)
SMILES	StopGo FLuc	StopGo RLuc
CCn1nc(C)c(CNC(=O)Nc2ccc(C)cc2C)c1C	16%	-7%
CCCCCn1nc(C(=O)N(CCOC)c2c(N)n(CCCC)c(=O)[nH]c2=O)c2ccccc2c1=O	1%	4%
Cc1cc(C)n(CCc2nc3c4ccccc4nc(N4CCN(c5ccccc5F)CC4)n3n2)n1	-19%	-22%
CC(=O)N1CCN(C(C(=O)O)c2c[nH]c3ccc(NC(=O)c4ccccc4)cc23)CC1 (stereo unspecified)	17%	5%
COc1ccc(-c2oc3ccc(OC)cc3c2C(=O)Nc2ccc(C(C)=O)cc2)cc1	65%[activator]	9%
COc1ccc(C(=O)Oc2c(Sc3ccccc3)c(C)nn2-c2ccccc2)cc1OC	-12%	-3%
O=C(CNC(=O)c1ccccc1)OCc1cc(=O)n2nc(C3CC3)sc2n1	-11%	-9%
Cc1ccc(N2CCN(C(=O)c3ccc(Nc4nc5ccccc5n5nnnc45)cc3)CC2)c(C)c1	4%	?
COCCNC(=S)NNC(=O)Cc1ccc(OC)c(OC)c1	13%	-2%
Cc1cc2c(c(=O)o1)C(c1cccs1)C(C#N)=C(N)O2 (stereo unspecified)	-19%	-20%

Single records, as listed above:
Cc1cc2c(c(=O)o1)C(c1cccs1)C(C#N)=C(N)O2 (stereo unspecified) in the list: StopGo FLuc = -19%; StopGo RLuc = -20%
CC(=O)N1CCN(C(C(=O)O)c2c[nH]c3ccc(NC(=O)c4ccccc4)cc23)CC1 (stereo unspecified) in the list: StopGo FLuc = 17%; StopGo RLuc = 5%

The list continues.
SMILES	StopGo FLuc	StopGo RLuc
Cc1ccc(NC(=O)/C(C#N)=C\c2ccccc2OC(F)F)c(C)c1	33%[activator]	28%
Cc1ccc(C2C(C#N)=C(N)Nc3ncnn32)cc1 (stereo unspecified)	2%	7%
COc1ccccc1-c1cc(C(F)(F)F)nc(S(=O)(=O)CCCC(=O)Nc2ccc(F)cc2F)n1	-12%	-10%
COc1cccc(-c2nc(COc3ccccc3C#N)cs2)c1	68%[activator]	-2%
CSc1ccccc1NC(=O)c1cc(F)c(F)cc1Cl	17%	18%
CCn1c(C(=O)N2CCC(C(=O)NCCc3ccc(C)cc3)CC2)cc2sccc21	-18%	15%
O=C(CN1C(=O)COc2ccc(S(=O)(=O)N3CCCCCC3)cc21)N1CCN(c2ccc(Cl)cc2)CC1	-20%	-12%
O=C(Cc1ccccc1)Nc1sc2c(c1C(=O)Nc1ccccc1Cl)CCC2	-13%	4%
CCOc1ccc(C(=O)c2cn(Cc3ccccc3OC)c3cc4c(cc3c2=O)OCCO4)cc1	-12%	8%
Cc1c(CC(=O)N2CCC(O)(c3ccc(Cl)cc3)CC2)c(=O)oc2cc(O)ccc12	-15%	4%
CCC(=O)Nc1cc(C)ccc1NC(=O)c1cccs1	10%	-12%
Cc1ccccc1-c1noc(-c2ccc(NCc3cccnc3)c([N+](=O)[O-])c2)n1	93%[activator]	-6%
COc1ccc(CNC(=O)C2=C(C)C(=O)OC23CCN(C(C)=O)CC3)cc1	8%	-7%
CCn1c(=O)c2c(nc(-n3nc(C)c(C)c3C)n2CC)n(C)c1=O	-2%	2%
CC(C)(C)c1cc(-c2ccccc2)c2c3c(sc2n1)CCCC3	?	-3%[1.06 µM]
CCCOc1ccc2c(-c3ccccc3)cc(=O)oc2c1	35%[activator]	11%
O=C(Nc1ccc(F)cc1)C(=O)c1c[nH]c2ccccc12	156%[activator]	-7%
COC(=O)c1ccc(CN(C)C(=O)c2ccc(Cl)c(S(=O)(=O)NC3CC3)c2)cc1	1%	-7%
Cc1cc[n+](CCc2ccccc2)cc1C	3%	11%
Cc1cc(C)c(NC(=O)CSc2nc(=O)n(Cc3ccncc3)c3c2CCC3)c(C)c1	29%	51%[activator]
O=C(O)c1ccc(COc2cccc(/C=N/O)c2)cc1	117%[activator]	4%
Cc1ccc(NC(=O)CC(C)(C)CC(=O)O)cc1	11%	5%
Nc1ccc2c(c1)CN1C(=O)c3ccccc3C1=N2	65%[27 µM]	-12%[23.8 µM]
CCN1CC(CN(C)Cc2nnc(C)o2)Oc2ccccc21 (stereo unspecified)	14%	2%
CCS(=O)(=O)N1CCc2cc(C(=O)NCc3ccccc3OC)ccc21	-2%	9%
COc1ccccc1CN=C1NS(=O)(=O)C(c2ccc(C)c(C)c2)=C1C	-3%	16%
CC(OC(=O)c1cc(=O)[nH]c2ccccc12)C(=O)Nc1cccc2ccccc12 (stereo unspecified)	-5%	-6%
CC(C)NS(=O)(=O)c1ccc(OCC(=O)N2CCN(c3ccccc3F)CC2)cc1	?	39%[activator]
CC(=O)Nc1cccc(CNC(=O)/C=C/c2sccc2C)c1	138%[activator]	13%
C=C(C)Cn1c(SCC(=O)Nc2cccc(C)c2)nc2sc3c(c2c1=O)CCCC3	8%	13%
CCOc1cc(C2NC(=O)N(C)C(C)=C2C(=O)OC2CCCC2)cc(Br)c1O (stereo unspecified)	9%	6%
CCCOc1ccccc1C(=O)N1CCCCC1CCN1CCOCC1 (stereo unspecified)	-13%	-10%
COc1cc(OC)c(C(=O)OCc2ccccc2Br)cc1OC	0%	-3%[1.06 µM]
COc1ccc(CCNC(=O)c2ccc3c(c2)N(Cc2ccccc2F)C(=O)c2ccccc2S3(=O)=O)cc1OC	-16%	14%
COc1cccc(Cn2c(C)c(CNCc3ccccc3Cl)c(C(=O)O)c2C)c1	-10%	78%[activator]
Cc1ccc(S(=O)(=O)N(Cc2ccc(C(=O)NC3CC3)cc2)C2CC2)c(C)c1	?	?
COC(=O)[C@]1(C)CCC[C@]2(C)C3C[C@@H]4C(C(C)C)=CC3(CCC21)[C@@H]1C(=O)CCC(=O)[C@H]41 (stereo partly specified)	-10%	1%
Cn1c(=O)c2c(ncn2CCC(=O)NCC(F)(F)F)n(C)c1=O	0%	17%
